# Cruzain inh noDet – inhibitors of Trypanosoma cruzi cruzain without detergent | P25779 | Potency, µM, inactives show max response, negative = inhibition, actives largely listed as inhibitors | purified cruzain, Z-FR-AMC fluorescence, no detergent | AID 1476 | 200,000 compounds, 2.3% hits;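 also: plate controls were enzyme without inhibitor for no effect and buffer without enzyme for full effect; nearly all actives have a fitted effect of over 40% in size; top concentration of the series not given in the record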
# Target sequence (P25779 123-467 limits assumed): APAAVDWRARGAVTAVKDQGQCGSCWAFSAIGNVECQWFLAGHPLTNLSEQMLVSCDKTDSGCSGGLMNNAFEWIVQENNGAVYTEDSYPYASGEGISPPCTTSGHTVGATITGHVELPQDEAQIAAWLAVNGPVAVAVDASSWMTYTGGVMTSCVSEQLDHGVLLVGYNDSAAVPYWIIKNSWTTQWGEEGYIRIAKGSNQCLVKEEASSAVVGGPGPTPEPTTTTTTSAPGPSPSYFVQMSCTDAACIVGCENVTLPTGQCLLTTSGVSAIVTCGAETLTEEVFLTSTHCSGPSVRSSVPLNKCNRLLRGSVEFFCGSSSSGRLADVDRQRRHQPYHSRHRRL
#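 Purified cruzain at 1.5 nM, pre-incubated 15 min with compound at room temperature in 100 mM sodium acetate pH 5.5, 5 mM DTT, 0.00005% Triton X-100. Reaction started with 2 uM Z-FR-AMC; AMC fluorescence increase over 60 s gives rate.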
# MARV entry inh – Marburg virus entry inhibition; 300,000 compounds, 1.8% hits; AID 540276; Potency, µM (titrated, usually from 37.8 µM), for inactives: at the highest dose activity change, negative = inhibition, most hits filed as inhibitors; Marburg virus pseudotyped entry inhibition, cell reporter; control for the full effect not named in the record; about a third of the inactives were read at about 46 µM; active = well fitted inhibition curve with a large enough effect; inconclusive = small, poorly fitted or top-dose-only effect, or effect the other way; inactive = flat fitted curve, though single readings scatter; tested in HEK293 cells; about a fifth of its hits are not listed in these tables; also: % is scaled to controls: 0 for no effect and ±100 for the full control effect; luciferase read-out
# Cruzain Triton – blocks cruzain activity in presence of Triton detergent. P25779. purified cruzain, Z-FR-AMC fluorescence, 0.01% Triton. Potency, µM, for inactives: max response, negative = inhibition, actives largely listed as inhibitors. 200,000 compounds, 0.43% hits. AID 1478;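 also: plate controls were neutral wells for no effect and buffer without enzyme for full effect; nearly all actives have a fitted effect of over 40% in size; top concentration of the series not given in the record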
#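 Detergent-containing run (0.01% Triton X-100) in acetate buffer pH 5.5 with 5 mM DTT: enzyme at 1.5 nM final, 15 min compound preincubation at room temperature, then 2 uM Z-FR-AMC substrate. Activity taken as 60 s fluorescence increase at 360/450 nm.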
# SARS PLpro yeast – SARS-CoV PLP inhibition in yeast; S. cerevisiae expressing SARS-CoV PLpro, growth rescue; control for the full effect not named in the record; Potency, µM (top dose mostly 32.9 µM), inactives show at the top dose activity, positive = growth rescue; 330,000 compounds, 0.19% hits; active means well fitted rising curve with a large enough effect; inconclusive means small, poorly fitted or top-dose-only effect; inactive means no such curve, though single readings can be large or run the other way; also: 0% is about no effect; nearly all actives have a fitted effect of over 55% in size; growth read by luminescence after 48 h
# StopGo reporter – lowers the luciferase signal of an FMDV 2A StopGo reporter; human cells with a luciferase reporter of 2A StopGo recoding; control for the full effect not named in the record; Potency, µM (titrated, usually from 57.9 µM), inactives show at the top dose signal change, negative = less light; AID 1159524; 410,000 compounds, 1.2% hits; active = well fitted falling curve with a large enough effect; inconclusive = small, poorly fitted or top-dose-only effect; inactive = no such curve, though single readings can be large or run the other way; tested in HEK293T cells; also: % is scaled to controls: 0 for no effect and ±100 for the full control effect; nearly all actives have a fitted effect of over 45% in size; luciferase light after 4 h
# Lassa entry inh – inhibitors of Lassa virus binding or cell entry | Potency, µM (series often up to 37.9 µM), without a hit: at the highest dose activity change, negative = inhibition, usual class: inhibitors | Lassa virus pseudotype entry inhibition, cell reporter; control for the full effect not named in the record | 300,000 compounds, 1.2% hits; active means well fitted inhibition curve with a large enough effect; inconclusive means small, poorly fitted or top-dose-only effect, or effect the other way; inactive means flat fitted curve, though single readings scatter; tested in HEK293 cells; also: % is scaled to controls: 0 for no effect and ±100 for the full control effect; nearly all actives have a fitted effect of over 50% in size; luciferase read-out
# NS1 function inh – influenza NS1 inhibition | Potency, µM (series often up to 46.1 µM), for inactives: at the top dose activity, positive = more growth | S. cerevisiae slowed by influenza A NS1, growth recovery by OD600 | 270,000 compounds, 0.4% hits; active means well fitted rising curve with a large enough effect; inconclusive means small, poorly fitted or top-dose-only effect; inactive means no such curve, though single readings can be large or run the other way; also: nearly all actives have a fitted effect of over 50% in size
#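 Compounds were scored for reversing the slow growth caused by influenza A NS1 in S. cerevisiae, measured by optical density at 600 nm. Assay medium contained 2% galactose at pH 6.0; NS1-free yeast of the same strain were the positive control.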
# RE007 growth inh – less growth of the S. pombe RE007 Vpr strain; Potency, µM (top dose mostly 92.2 µM), for the others: at the highest dose activity change, negative = less growth; S. pombe RE007 Vpr strain, BacTiter-Glo ATP luminescence, 24 h; control for the full effect not named in the record; 360,000 compounds, 0.21% hits; active = well fitted falling curve with a large enough effect; inconclusive = small, poorly fitted or top-dose-only effect; inactive = no such curve, though single readings can be large or run the other way;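 also: % is scaled to controls: 0 for no effect and ±100 for the full control effect; nearly all actives have a fitted effect of over 50% in size; the assay follows cell death caused by Vpr and the record does not say whether a fall means rescue or toxicity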
#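 Fission yeast strain RE007, carrying one chromosomally integrated HIV-1 vpr copy, was seeded at OD 0.01 in PMG+AL medium with 23 nL pinned compound. After 24 h at 30 °C and 99% humidity, viability was read by BacTiter-Glo luminescence.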
# * marks the source's active call; other numbers are inactive results; ? = inconclusive; nt = not tested or not shown; & = joins results of further samples; [ ] = dose if it differs, or a comment. Unless noted, calls follow the shape of the dose curve; as a rule, active = well fitted curve in the direction sought with a large enough effect; inconclusive = small, poorly fitted or top-dose-only effect, or another doubt; inactive = no such curve, though single readings can be large; an effect the other way counts as inactive or inconclusive. Potency is read from the fitted curve at half-maximal effect. Hits appear at their usual frequency; 4.8% or so of the library scored in one or more.
SMILES,Cruzain inh noDet,MARV entry inh,Cruzain Triton,SARS PLpro yeast,StopGo reporter,Lassa entry inh,NS1 function inh,RE007 growth inh
Cc1cc(C(=O)N2CCN(c3ccccc3)CC2)c(C)o1,-2%,-2%,2.7%,5%,21%,43%,-12%,-11%
CSc1nccc(Oc2ccccc2Cl)n1,nt,19%[46.1 µM],nt,nt,26%,9%,nt,-1%
CCOc1ccc(/C=C/C2=Cc3c(sc(NC(=O)CSc4n[nH]c(N)n4)c3C#N)C(C)(C)C2)cc1,-11%,?,-9.1%,3%,?,-17%,21%,-6%
CC(C)C(NC=C1C(=O)OC(C)(C)OC1=O)C(=O)O (stereo not drawn),-7%,6%,4.4%,2%,18%,-16%,2%,-3%
CCOc1ccccc1C(=O)N(Cc1ccc(N(C)C)cc1)Cc1ccco1,-26%,11%[46.1 µM],-15%,nt,0%,?,nt,nt
COc1ccc(CSCC(=O)Nc2ccccc2)cc1[N+](=O)[O-],nt,?,nt,-1%,0%,?,-2%,18%
Cc1ccc(CNc2ccc(N3CCOCC3)cc2)s1,9%,-4%,4.1%,1%,20%,?,1%,-11%
CCCOc1ccc(N2C(=O)CC(NCc3ccc(S(N)(=O)=O)cc3)C2=O)cc1 (stereo not drawn),nt,3%[46.1 µM],nt,-7%,-3%,7%,5%,-3%
Cc1nc(CCNC(=O)CC2C(=O)NCCN2CC(C)(C)C)nc2c1CCC2 (stereo not drawn),nt,-6%,nt,nt,0%,12%,nt,-13%
CC(C)(C)C(=O)N1CCN(C(c2ccccc2)c2ccccc2)CC1,nt,-5%,nt,-3%,-23%,?,-9%,-6%
Cn1c(-c2cc3ccc(OC(=O)C(C)(C)C)cc3oc2=O)nc2ccccc21,15%,?,-21%,-4%,46%[activator],?,-5%,-20%
CCn1cnc2c1c(=O)n(CC(=O)NCc1ccccc1)c(=O)n2Cc1ccccc1,nt,-22%[46.1 µM],nt,0%,13%,-18%[46.1 µM],nt,-12%
CC(C)[C@H](NC(=O)c1ccco1)C(=O)OCC(=O)Nc1ccccc1OC(F)F,nt,4%[46.1 µM],nt,-4%,-19%,0%,nt,-13%
CC1=C(C(=O)Nc2ccc(C)cc2C)C(c2ccc([N+](=O)[O-])cc2)n2ncc(C(=O)Nc3ccc(F)cc3)c2N1 (stereo not drawn),-9%,nt,-1.5%,nt,1%,11%[46.1 µM],nt,nt
CC(/C=N/NC(=O)c1cc(-c2cccn2C)n[nH]1)=C\c1ccccc1,nt,?,nt,-2%,-12%,?,8%,-9%
COc1cc(CNc2cccc(F)c2)cc(Br)c1O,25µM*,-12%,-5.4%,6%,-1%,6%,3%,-12%
COc1ccc(OC)c(CC(NC(C)=O)C(=O)NC2CCN(C(=O)c3cccc(C)c3)CC2)c1 (stereo not drawn),nt,25%[46.1 µM],nt,6%,12%,nt,9%,0%
CNc1nc(C)cc(C)c1S(=O)(=O)c1ccc(Cl)cc1,4%,-24%,-3.2%,-19%,-26%,-4%,-30%,2%
COc1ccc(/C=C2/C(=O)N(c3nc4ccccc4s3)N=C2CSc2ccc(Cl)cc2)cc1,3.2µM*,?,-8.3%,-5%,-17%,-1%,11%,-8%
O=C(COc1ccc(Cl)cc1Br)N1CCN(S(=O)(=O)c2ccccc2)CC1,nt,?,nt,-5%,-22%,?,-9%,-1%
O=C(CN1CCN(C(=O)N2CCOCC2)CC1)Nc1ccc(Br)cc1,-1%,24%[46.1 µM],-3.1%,nt,4%,-26%,-13%,-11%
CCOC(=O)N1CCN(C(=O)CCc2ccc(S(=O)(=O)NCC(C)C)cc2)CC1,nt,4%[46.1 µM],nt,nt,0%,-14%[46.1 µM],nt,6%
O=C(c1ccc(F)cc1)N1c2nc(-c3ccco3)nn2C2(CCCCC2)[C@@H]2CCCC[C@@H]21,8%,-6%[46.1 µM],-3.9%,nt,-26%,2%[46.1 µM],nt,nt
COc1ccc(CN(Cc2nc3ccccc3c(=O)[nH]2)C(=O)NC2CCCCC2)cc1,-5%,-4%[46.1 µM],-0.4%,0%,-11%,24%,-11%,13%
COc1ccc(CCN(C)C(=O)CSc2nnc(C3CC3)n2N)cc1OC,nt,-1%,nt,-1%,-7%,-12%,nt,-4%
COCCNC(=O)c1ccc2c(c1)ncn2-c1ccc(C)c(Cl)c1,nt,?,nt,0%,17%,?,-5%,4%
CCN(CC)c1ccc(-c2n[nH]c(=S)n2-c2ccccc2)cc1,nt,-6%[46.1 µM],nt,0%,?,?,-8%,-6%
CC(=O)N1c2ccc(S(=O)(=O)N3CCC(C(=O)NC4CCC(C)CC4)CC3)cc2CC1C (stereo not drawn),nt,nt,nt,0%,19%,nt,-16%,-2%
COc1ccc(NC(=O)c2ccco2)cc1NC(=O)c1ccc(C)cc1,1%,-45%,-4.4%,3%,-4%,-26%,-25%,2%
CCOC(=O)NNC(=O)c1[nH]c2ccc(Br)cc2c1-c1ccccc1,nt,nt,nt,-2%,-1%,nt,13%,2%
FC(F)Sc1ccc(NC(=S)NCC2CCCCC2)cc1,2%,-26%,-8.0%,-32%,9%,-26%,-235%,?
Cc1ccc(CN(C(=O)CNC(=O)c2cccs2)C(C(=O)NCC2CCCO2)c2ccccc2)cc1 (stereo not drawn),?,-27%,-1.1%,-2%,nt,-21%,-8%,0%
Cc1cc(C(=O)NCc2ccc(Cl)cc2)c2c(C)nn(-c3ccccc3)c2n1,-5%,nt,-0.7%,nt,-20%,-3%[46.1 µM],nt,nt
CCOc1ccc(-c2ccc(NS(=O)(=O)c3cc(C)c(C)cc3C)cc2)nn1,-8%,nt,-3.5%,nt,39%[activator],12%[46.1 µM],nt,nt
CCOc1ccc(NC(=O)CSC(N)=O)cc1,-5%,-9%,-5.4%,2%,-18%,-2%,-39%,3%
Cc1cc(C)n2c(Br)c(CN3CC4CC(C3)c3cccc(=O)n3C4)nc2n1 (stereo not drawn),7%,7%,-0.8%,-2%,-22%,-18%,-19%,1%
CCn1c(=O)c2cc(C(=O)N3CCN(c4cccc(OC)c4)CC3)sc2c2ccccc21,6%,?,-0.1%,nt,0%,?,nt,nt
CCOC(=O)c1cc(NC(=O)c2cccs2)ccc1N1CCOCC1,nt,?,nt,0%,-11%,4%,-1%,6%
Cc1ccc(C(=O)NC2CCCCCC2)cc1N1CCCC1=O,-2%,6%[46.1 µM],2.2%,2%,23%,?,-6%,2%
CCOC(=O)C1=C(CNCc2ccccc2Cl)NC(=O)NC1c1ccc2c(c1)OCO2 (stereo not drawn),1%,-30%,0.3%,-1%,-31%,?,?,21%
Cc1ccc(C(=O)c2cncc(Br)c2)cc1,-6%,7%,-0.7%,-3%,24%,9%,-2%,-21%
COc1ccc(NC(=O)CSc2nnnn2C2CCCCC2)cc1,nt,24%[46.1 µM],nt,2%,-6%,2%[46.1 µM],-1%,-6%
Cc1[nH]ncc1-c1nc2ccccc2[nH]1,nt,?,nt,1%,9%,13%[46.1 µM],4%,8%
CCn1c(=O)cc(SCC(=O)N2CCN(c3ccccc3OC)CC2)c2ccccc21,?,-21%,-4.0%,4%,?,1%,-2%,18%
COCCNC(=O)c1cc2c3ccccc3n(C)c2s1,5%,-15%,-12%,-8%,4%,5%,-47%,-22%
O=C(CCn1ccnc1)Nc1nc2ccccc2[nH]1,nt,0%,nt,2%,12%,17%,nt,-7%
COc1ccc(N2CCN(C(=O)CN3C(=O)NC4(CCCCC4C)C3=O)CC2)cc1 (stereo not drawn),nt,-1%[46.1 µM],nt,21%,-3%,4%[46.1 µM],nt,-24%
CCOC(=O)C1(CCOC)CCN(Cc2cc3ccccc3s2)CC1,nt,?,nt,-2%,?,-8%,9%,-6%
Cn1cc(CNCc2cn[nH]c2-c2ccc(F)cc2)c(-c2ccc3c(c2)OCCO3)n1,nt,nt,nt,-1%,-2%,nt,4%,13%
CC(C)Cc1ccc(C(=O)NCCOc2ccccc2)o1,nt,-3%[46.1 µM],nt,-3%,-2%,2.8µM*,-14%,21%

# More records follow.
SMILES,Cruzain inh noDet,MARV entry inh,Cruzain Triton,SARS PLpro yeast,StopGo reporter,Lassa entry inh,NS1 function inh,RE007 growth inh
CC(=Nc1c(C)n(C)n(-c2ccccc2)c1=O)c1c(O)n(Cc2ccccc2)c(=O)[nH]c1=O,-7%,-3%,-1.7%,-3%,13%,-11%,-5%,1%
O=C(CNC(=O)c1ccco1)OCC(=O)c1ccccc1,-5%,1%,-2.0%,?,-8%,14%,?,20%
O=C(c1ccco1)c1cn(Cc2ccccc2Cl)c2ccccc12,7%,?,-1.0%,-32%,-18%,?,-27%,5%
Cc1ccc(/C=C2\SC(=S)N(CCCC(=O)Nc3cccc(C(=O)O)c3)C2=O)cc1,nt,nt,nt,3%,38%[activator],nt,13%,14%
COc1ccc(NC(=O)CSc2nc3ccccc3c(=O)n2Cc2cccs2)c(OC)c1,-2%,-3%,-0.8%,4%,nt,nt,1%,nt
COc1cccc(-n2ccn(CC(=O)NCCc3ccccc3)c(=O)c2=O)c1,nt,8%[46.1 µM],nt,2%,-1%,?,-10%,8%
Cc1nn(CC(O)Cn2c3c(c4ccccc42)CCN(C)C3=O)c(C)c1Br (stereo not drawn),?,-3%&-3%,-8.9%,-7%,?,-1%,-38%,0%
CCOCCCNC(=O)C1CCC(CNS(=O)(=O)c2ccc(OC)cc2)CC1 (stereo not drawn),nt,-6%[46.1 µM],nt,1%,12%,14%,nt,1%
COCCn1c(SCC(=O)NCc2ccc(OC)c(OC)c2)nc2ccccc21,nt,14%[46.1 µM],nt,-1%,-9%,nt,-3%,-6%
CCc1ccccc1NC(=O)C/C(C)=N/NC(=O)COc1ccccc1C,nt,-14%[46.1 µM],nt,-1%,-6%,4%[46.1 µM],-1%,5%
COc1cccc(C(=O)C2CCCN(Cc3cn[nH]c3C3CCCCC3)C2)c1 (stereo not drawn),nt,?,nt,0%,-13%,8%,-1%,-8%
C[C@@]12CC(=O)NC1N(C(=O)c1cccc(C(F)(F)F)c1)C(c1ccccc1OC(=O)c1cccc(C(F)(F)F)c1)C2 (stereo partly drawn),?,?,-6.4%,2%,0%,?,25%,2%
CC1(C)N=C(N)N=C(N)N1c1ccccc1,1%,?,2.7%,-8%,-15%,?,2%,15%
O=C(Cc1ccc([N+](=O)[O-])cc1)Nc1nccs1,nt,nt,nt,2%,-13%,nt,7%,-3%
